Source: PubChem (Vanderbilt University)
GIRK2 act – opens human GIRK2 potassium channels; HEK293-GIRK2 thallium flux, Thallos fluorescence; calls only for hits at 25 µM; 63,000 compounds, 0.05% hits;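 active means among the strongest 0.2% of first-round signals and kept after retests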;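 further: first round at about 10 µM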
Target sequence (P48051 whole entry, looked up): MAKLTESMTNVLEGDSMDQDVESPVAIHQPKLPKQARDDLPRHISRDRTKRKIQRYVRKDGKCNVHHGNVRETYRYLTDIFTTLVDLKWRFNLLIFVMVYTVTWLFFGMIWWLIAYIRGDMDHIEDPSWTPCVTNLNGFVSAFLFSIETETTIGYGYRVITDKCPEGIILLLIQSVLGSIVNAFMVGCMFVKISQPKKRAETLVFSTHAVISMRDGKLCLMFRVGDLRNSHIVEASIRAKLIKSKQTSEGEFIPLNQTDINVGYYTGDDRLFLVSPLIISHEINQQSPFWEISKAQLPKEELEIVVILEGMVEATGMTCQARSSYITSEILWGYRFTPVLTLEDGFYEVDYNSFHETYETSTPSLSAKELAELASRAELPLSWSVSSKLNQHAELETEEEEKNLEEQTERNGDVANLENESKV
Calls only; i = inactive. Some of the compounds tested. The share of hits here may be higher or lower than overall.

SMILES | GIRK2 act
COC(=O)c1cn(CCc2ccccc2)nc1S(=O)(=O)N1CCCCC1 | i
Cc1csc(C(=O)NCc2cc(-c3ccncc3)n(C3CCCC3)n2)c1 | i
Cc1ccc(NC(=O)Cc2nc(-c3cccnc3)n[nH]2)cc1 | i
O=C(NCCC(O)c1ccc2c(c1)OCO2)Nc1cccc(C(F)(F)F)c1 (centres undefined) | i
COc1ccccc1-c1ccc(N2CCC(NC(=O)c3ccnn3C)CC2)nn1 | i
COc1nn(C)cc1C(=O)Nc1ccc(C(=O)Nc2cc(C)ccn2)cc1 | i
O=C(Cc1ccc(Cl)cc1)NCC1(c2ccc(F)cc2)CC1 | i
CCOC(=O)N1CCC(NC(=O)CCc2cccc(Oc3ccc(F)cc3)c2)CC1 | i
Cc1cc(C)cc(NC(=O)c2c(O)c3c(C)c(C(=O)N(C)C)sc3[nH]c2=O)c1 | i
Cc1cc(=O)n(CC(=O)N2CCc3ccccc32)c(N2CCOCC2)n1 | i
Cc1nc(CC(=O)Nc2cccc(Cl)c2)sc1C(=O)NCc1ccc(F)cc1 | i
O=C(NCCNc1ccc(Nc2ccncc2)nn1)c1ccc(F)cc1Cl | i
COc1ccccc1CNC(=O)C1CCN(c2c(C#N)cnc3ccc(F)cc23)CC1 | i
Cc1nc(OCC(=O)Nc2cc(Cl)ccc2Cl)c2ccccc2n1 | i
O=C(Cc1ccccc1)NCC1CCS(=O)(=O)C1 (centres undefined) | i
O=C(/C=C/c1ccco1)N1CCC(c2nnc(-c3ccc(F)cc3)o2)CC1 | i
Cc1ccccc1OCC(=O)N1CC(c2nc(-c3ccc[nH]c3=O)no2)C1 | i
C=CCN(CC=C)S(=O)(=O)c1ccc(C(=O)N2CCc3ccccc32)cc1 | i
CCc1ccc(NC(=O)/C=C/c2ccccc2OC)cc1 | i
Cc1nnsc1C(=O)N1C2CCC1CC(S(=O)(=O)c1ccccc1)C2 (centres undefined) | i
COCCCNc1nc2c([nH]1)c(=O)n(C)c(=O)n2C | i
COc1ccccc1/C=C1\Oc2c(ccc3c2CN(Cc2ccccn2)CO3)C1=O | i
O=C(Cn1nc2ccc(Sc3ccccc3)nn2c1=O)Nc1ccc(Cl)cc1 | i
COCCn1nnn(-c2ccc(NC(=O)Cc3cccs3)cc2)c1=O | i
CC(C)c1ccc(OCC(O)CN2CCCCC2)cc1 (centres undefined) | i
CCN1CCN(c2cc3c(cc2F)c(=O)c(S(=O)(=O)c2ccc(OC)cc2)cn3C)CC1 | i
Fc1cccc(-c2nnn3c2nc(N2CCC4(CC2)OCCO4)c2cc(Cl)ccc23)c1 | i
O=S(=O)(Cc1ccccc1)N1CCN(c2ccc(-c3ccc4c(c3)OCO4)nn2)CC1 | i
CC(C)c1nc(-c2ccc(N3CCN(C(=O)c4cc(-c5cccs5)[nH]n4)CC3)nc2)no1 | i
O=C(Cc1cccs1)NCCn1ncc2c(N3CCCC3)ncnc21 | i
O=C(CSc1nnc(-c2ccccc2)o1)c1ccc(Cl)c(Cl)c1 | i
CC(=O)N1CCc2c(sc(NC(=O)COc3ccc(Cl)cc3)c2-c2nc3ccccc3s2)C1 | i
COc1ccccc1NC(=O)Nc1ccccc1-c1ccc(=O)[nH]n1 | i
COc1cccc(C(=O)NCC2(O)CCCC2)c1 | i
CC(C)NC(=O)Nc1nc2c(s1)CN(C(=O)Nc1c(F)cccc1F)CC2 | i
COc1ccc(C)cc1NC(=O)Cn1nc2c3cc(-c4ccc(Cl)cc4)nn3ccn2c1=O | i
CCCCCCCCCCCCCCCC(=O)NCCS(=O)(=O)O | i
CCOC(=O)C1CCN(c2c(C#N)cnc3ccccc23)CC1 | i
O=C(NC1CCCCC1N1C(=O)CSC1=O)c1ccc(=O)[nH]c1 (centres undefined) | i
CN(C)C(=O)Nc1cn(C)c2ccccc12 | i
Cn1cc(C(=O)N2CCC(Oc3ccccn3)CC2)nn1 | i
Cc1nc2ccccc2n1CC1CCN(Cc2cccnc2)CC1 | i
O=C(Cn1ccc2ccccc21)N1CCN(c2ccc(-n3ccnc3)nn2)CC1 | i
Cc1cc(=O)[nH]c(-n2nc(C3CC3)cc2NC(=O)c2cc(=O)c3ccccc3o2)n1 | i
O=S(=O)(NCC1(CO)CC1)c1ccccc1Cl | i
CCCn1c(-n2nc(CC)cc2CC)nc2c1c(=O)n(CCN1CCOCC1)c(=O)n2C | i
COc1ccc(C(=O)Nc2ccc(Cl)c3ncsc23)cc1OC | i
Cn1nc(-c2ccccc2)cc1C(=O)N1CCC(Oc2ncccc2Cl)CC1 | i
CCOc1cccc(-c2noc(Cn3ncn4nc(-c5ccc(F)cc5)cc4c3=O)n2)c1 | i
CC1CCC2(OC1)OC1CC3C4CC=C5CC(OC6OC(C)C(OC7OC(C)C(OC8OC(CO)C(O)C(O)C8O)C(O)C7O)C(O)C6OC6OC(C)C(O)C(O)C6O)CCC5(C)C4CCC3(C)C1(O)C2C (centres undefined) | i
O=C(NCCc1ccccc1)N1CCC(c2nnc(C3CC3)o2)CC1 | i
CC1=NN(CCN2CCN(c3ccccc3F)CC2)c2nc3c(c(=O)n(C)c(=O)n3C)n2C1 | i
COc1ccc(N2CCn3c2nc2c3c(=O)n(CCN3CCOCC3)c(=O)n2C)cc1Cl | i
CC(=O)N1CCN(c2ccnc3c2c(=O)n(Cc2ccc(Cl)cc2)c(=O)n3C)CC1 | i
O=C(NCC1(c2cccs2)CCCC1)Nc1ccccc1C(F)(F)F | i
CC(C)Sc1ccc(-c2nnc(NC(=O)c3cccc(N(C)C)c3)o2)cc1 | i
O=C(c1ccc(S(=O)(=O)N2CCCC2)cc1)N1CCc2ccccc2C1 | i
CC(c1ccccc1)N1COc2ccc3c(=O)c(-c4ccccc4)coc3c2C1 (centres undefined) | i
CC(=O)Nc1ccc(SCCCC(=O)N2CCC(C(N)=O)CC2)nn1 | i
COC(=O)c1cn(Cc2cccc(C#N)c2)nc1S(=O)(=O)N1CCc2ccccc2C1 | i
Other records
SMILES | GIRK2 act
O=C(Nc1nc(C(=O)N2CCN(c3ncccn3)CC2)co1)c1ccsc1 | i
Cc1ccc(C)c(NC(=O)Cn2nc3c(Sc4ccccc4)nccn3c2=O)c1 | i
CCCC(=O)Nc1oc2c(C)cccc2c(=O)c1-c1ccc(OC)cc1 | i
N#Cc1nc(-c2ccccc2Cl)oc1N1CCN(C(=O)c2ccccc2Cl)CC1 | i
CC(=O)c1c(C)cc(O[C@@H]2O[C@H](CO)[C@@H](O)[C@H](O)[C@H]2O)cc1O | i
O=C(NCc1cnn2ccccc12)C(=O)c1c[nH]c2ccccc12 | i
COc1ccc(CCNc2oc(-c3ccc(S(=O)(=O)N4CCCCC4)cc3)nc2C#N)cc1OC | i
Cc1cc(C)c(C#N)c(SCC(=O)NC(C)(C)C)n1 | i
COc1ccc(C2CCN(C(=O)c3ccc(C#N)cc3)C2)cc1 (centres undefined) | i
COc1cc(C)c(C)cc1S(=O)(=O)NCC1(c2ccc(F)cc2)CC1 | i
O=C1CCc2cc(S(=O)(=O)NCC(c3ccsc3)N3CCOCC3)cc3c2N1CC3 (centres undefined) | i
CCOc1ccc(NC(=O)CCc2csc(NC(=O)Nc3ccccc3)n2)cc1 | i
COc1ccc(-n2c(C)c(C)n3c4c(=O)n(CC(N)=O)c(=O)n(C)c4nc23)c(OC)c1 | i
COc1ccccc1S(=O)(=O)N1CCC(C(=O)NCc2nc(C)no2)CC1 | i
N#CCSc1ncc(-c2cccc([N+](=O)[O-])c2)n1-c1ccc(Cl)cc1 | i
Cc1nc(C)c(C(=O)C2=C(O)C(=O)N(CCCN(C)C)C2c2ccc(C(C)C)cc2)s1 (centres undefined) | i
COc1ccc(-c2csc(-n3nc(C)cc3NC(=O)C(C)C)n2)cc1OC | i
CCOc1ccc2c(-c3ccnc(Nc4cccc(C(F)(F)F)c4)n3)cnn2n1 | i
CCOc1ccccc1Nc1cc(C(=O)OC)nc2ccc(F)cc12 | i
CN(C)S(=O)(=O)c1ccc(C(=O)NCC(C)(O)c2ccc(-c3ccccc3)cc2)cc1 (centres undefined) | i
COC(=O)c1ccccc1NC(=O)CSc1ncccc1C(=O)O | i
Cc1ccc(C)c(NC(=O)Cn2nc3c(SCc4ccc(Cl)cc4)nccn3c2=O)c1 | i
O=C1Nc2ccc(Br)cc2C12OCCCO2 | i
O=C1CC(NC(=O)c2ccccc2C(F)(F)F)CN1 (centres undefined) | i
CC1=Nc2ccc(C)cc2C1(C)C | i
CCCOC(=O)c1ccc(Oc2coc3cc(OCC#N)ccc3c2=O)cc1 | i
O=C(NCCC(O)c1ccc2c(c1)OCO2)C(=O)Nc1cc2c3c(c1)CCN3C(=O)CC2 (centres undefined) | i
CCOC(=O)C1CCc2sc(NC(=O)C(c3ccccc3)n3cccc3)nc21 (centres undefined) | i
Cc1ccc(-n2nnnc2CN2CCN(C(=O)NC3CCCCC3)CC2)cc1 | i
CC(C)c1cc(=O)[nH]c(-n2nc(C3CC3)cc2NC(=O)c2cc(=O)c3ccccc3o2)n1 | i
Cc1ccc(N2C(=O)CC(NNC(=O)c3ccccc3N)C2=O)cc1 (centres undefined) | i
O=C(NCC(O)c1ccc2c(c1)CCO2)C1(c2cccs2)CCCC1 (centres undefined) | i
O=C(NCc1cccs1)c1ccc(=O)n(Cc2cccc(F)c2)n1 | i
CCN1CCc2c(sc(NC(=O)C3CC3)c2-c2nc3ccccc3s2)C1 | i
COc1cccc(C(=O)N2CCN(Cc3nc(C4CC4)cs3)CC2)c1OC | i
CN(C)S(=O)(=O)c1ccc(-c2nc(C#N)c(NCc3ccco3)o2)cc1 | i
COc1ccc(CCNc2cc(C)nc3c(C)c(-c4ccc(OC)c(OC)c4)nn23)cc1OC | i
COc1cccc(CSc2nc(CC(=O)NC3CC3)cc(=O)[nH]2)c1 | i
CCOc1cc(C(=O)Nc2ccc3c(c2)N(C(=O)c2ccccc2)CCC3)cc(OCC)c1OCC | i
O=C1NCCc2ccc(NC(=O)C(c3ccccc3)c3ccccc3)cc21 | i
O=C(NCC1CCN(C(=O)Nc2ccc(F)cc2)CC1)C(=O)Nc1cc2c3c(c1)CC(=O)N3CCC2 | i
Nc1c(-c2nc(-c3ccc(Cl)cc3)cs2)nnn1-c1cccc(F)c1 | i
Cc1c(C)n2c3c(=O)n(CC(N)=O)c(=O)n(C)c3nc2n1-c1ccccc1F | i
O=C(NCc1cccs1)c1ccc(S(=O)(=O)N2CCCC2)o1 | i
CCOC(=O)C1CCN(c2nc3ccccc3n3c(=O)n(CC(=O)NC(C)CC)nc23)CC1 (centres undefined) | i
O=C(Cn1nnn(-c2ccc(NC(=O)c3cc4ccccc4oc3=O)cc2)c1=O)NC1CC1 | i
COc1cccc(CN2CCCN(CC(=O)Nc3cc(C)c(Cl)cc3OC)S2(=O)=O)c1 | i
COc1cc(NC(=O)COc2ccccc2OC)ncn1 | i
CCCCCn1c(=S)[nH]c2cc(C(=O)N3CCN(C)CC3)ccc2c1=O | i
CC1=NNc2nc3c(c(=O)n(Cc4ccccc4)c(=O)n3C)n2C1 | i
COc1ccc(-c2nnc(CC(=O)N3CCN(c4cc(C)ccc4C)CC3)o2)cc1 | i
COc1ccccc1N1CC(c2nc3ccccc3n2CC(=O)N(C(C)C)C(C)C)CC1=O (centres undefined) | i
COc1ccc(CC(=O)Nc2cnoc2)cc1OC | i
CCN(CC)C(=O)Oc1ccc2c(c1)O/C(=C\c1cc(Br)cc3c1OCOC3)C2=O | i
COc1ccc(Cl)cc1NC(=O)Nc1cnc(-n2ccnc2)nc1 | i
COCCCNC(=O)C1CCCN(c2ccc(Sc3ccc(Br)cc3)nn2)C1 (centres undefined) | i
CC(C)(C)NC(=O)C1CC(=O)N(c2ccccc2)C1 (centres undefined) | i
Cc1ccc(Cl)cc1NC(=O)Cn1nc(N2CCOCC2)c2ccccc2c1=O | i
Cc1oc(-c2cccc(C(F)(F)F)c2)cc1-c1nnc(-c2ccco2)o1 | i
COc1ccc(-c2cc3c(=O)[nH]nc(SCC(=O)NCc4cccs4)n3n2)cc1OC | i

Shown as a markdown table: entries from further up
| canonical_smiles | GIRK2 act |
| --- | --- |
| CCOC(=O)C1CCN(c2nc3ccccc3n3c(=O)n(CC(=O)NC(C)CC)nc23)CC1 (centres undefined) | i |
| O=C(Cn1nnn(-c2ccc(NC(=O)c3cc4ccccc4oc3=O)cc2)c1=O)NC1CC1 | i |
| COc1cccc(CN2CCCN(CC(=O)Nc3cc(C)c(Cl)cc3OC)S2(=O)=O)c1 | i |
| COc1cc(NC(=O)COc2ccccc2OC)ncn1 | i |
| CCCCCn1c(=S)[nH]c2cc(C(=O)N3CCN(C)CC3)ccc2c1=O | i |

Carrying on:
SMILES | GIRK2 act
CC(C)NCC(O)COc1ccccc1C(C)(C)C (centres undefined) | i
COc1ccc(-c2csc(-c3nnn(-c4cccc(Cl)c4)c3N)n2)cc1 | i
Cc1cc(C(=O)N2CCOC(c3ccccc3)C2)no1 (centres undefined) | i
COc1ccc(CC(C)(O)CNC(=O)C(=O)Nc2cccc(Cl)c2C)cc1 (centres undefined) | i
Cn1c(-c2ccccn2)nn(CCNC(=O)Cn2ccc3ccccc32)c1=O | i
COc1ccc2[nH]c3c(c(=O)c2c1)CN(CC(=O)Nc1ccc(C(C)C)cc1)CC3 | i
CCCc1nnsc1C(=O)Nc1ccc(-n2nnc(C(=O)NC3CC3)n2)cc1 | i

Part of the list above, as a markdown table.
| molecule | GIRK2 act |
| --- | --- |
| Cc1cc(C(=O)N2CCOC(c3ccccc3)C2)no1 (centres undefined) | i |
| Cn1c(-c2ccccn2)nn(CCNC(=O)Cn2ccc3ccccc32)c1=O | i |
| COc1ccc(-c2csc(-c3nnn(-c4cccc(Cl)c4)c3N)n2)cc1 | i |
| CCCc1nnsc1C(=O)Nc1ccc(-n2nnc(C(=O)NC3CC3)n2)cc1 | i |
| COc1ccc2[nH]c3c(c(=O)c2c1)CN(CC(=O)Nc1ccc(C(C)C)cc1)CC3 | i |
